Assay outcomes deposited in PubChem BioAssay by several laboratories.
FGF22 binding: shifts melting point of recombinant human FGF22 | actives 1.5% (n = 340,000) | Q9HCT0 | recombinant FGF22 thermal shift, SYPRO orange fluorescence; percent of sucrose octasulfate shift, DMSO zero | calls only at 9.99 µM | AID 651658;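 active = melting point raised past a set limit in the mean and every replicate; inconclusive = no clear call; three in four hits are not shown here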
HNF4A DNA FP: change in binding of human HNF4 alpha to DNA. P41235. HNF4a-FITC DNA binding, fluorescence polarization, 1 h. activity change, % at 10 µM. actives 0.3% (n = 360,000); in the data active = activity change above about 30%, passing the limit was not always enough;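 also: controls were the assay level and a saturating level of protein; the project sought stronger binding though the title names inhibitors; some compounds called inactive have numbers as strong as hits; positive values seem to mean higher polarization but the record does not say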
Target sequence (P41235 whole entry, looked up): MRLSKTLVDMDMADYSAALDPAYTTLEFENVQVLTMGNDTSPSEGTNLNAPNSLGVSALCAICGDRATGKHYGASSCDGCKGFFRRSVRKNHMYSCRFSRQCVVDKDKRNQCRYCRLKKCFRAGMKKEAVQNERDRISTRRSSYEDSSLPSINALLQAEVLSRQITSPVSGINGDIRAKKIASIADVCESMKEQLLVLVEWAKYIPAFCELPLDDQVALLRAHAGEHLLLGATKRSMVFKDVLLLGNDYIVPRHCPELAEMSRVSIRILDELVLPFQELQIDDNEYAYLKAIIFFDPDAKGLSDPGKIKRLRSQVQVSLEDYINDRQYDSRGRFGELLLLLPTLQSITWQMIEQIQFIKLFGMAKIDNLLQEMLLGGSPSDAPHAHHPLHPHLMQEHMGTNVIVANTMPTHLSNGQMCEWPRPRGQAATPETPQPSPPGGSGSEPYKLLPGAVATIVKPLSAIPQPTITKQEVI
RanGTP-Imp inh: inhibitors of RanGTP-importin-beta interaction, primary screen, biochemical, FRET, CFP-Ran, YFP-importin-beta, homogeneous; cell-free CFP-Ran/YFP-importin-beta FRET ratio; inhibition, % (concentration not given with the values); actives 1.1% (n = 300,000); AID 2216;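 active = most replicates above 15%; inconclusive = exactly half above 15%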;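 also: 0% = DMSO wells and 100% = Ran loaded with GDP instead of GTP; wells of about 40 µL received 100 nL stock; the first replicate is given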
E coli growth: blocks Escherichia coli growth; OD600 absorbance (no concentration beside the values); OD600, 23 h; stronger effect = lower value; actives 0.21% (n = 330,000);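 active = OD600 absorbance below the run mean of sample wells minus 3.6 SD, in any replicate, cut at about 0.56 in these data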;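 also: stock transfer was 300 nL into about 60 µL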
Vif TR-FRET: inhibitors of Vif binding to APOBEC3G peptide, primary screen, biochemical, TR-FRET, GST-Vif 1-94, biotin-A3G peptide, dose response retest (AID 1117319). actives 0.57% (n = 260,000). one-dose inhibition, %; IC50 in µM for titrated hits. TR-FRET GST-Vif / biotin-A3G peptide binding; higher % means a stronger effect; test concentration not given here; strong numbers were not always called active;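 active = above the screen mean plus three standard deviations and confirmed in dose response; inconclusive = results disagree or hit not tested in dose response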;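 also: Vif residues 1-94 fused to GST binding biotinylated APOBEC3G peptide 110-148; 0% = full assay without inhibitor and 100% = GST in place of GST-Vif; retest series ran down from 100 µM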
MLL AF4-AF9 inh: inhibitors of human MLL-AF4/AF9 interaction; AlphaScreen, biotin-AF4 peptide binding to FLAG-AF9; inhibition, % at 10 µM; actives 0.47% (n = 350,000); AID 651704;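 active = every replicate reaching a set inhibition limit, whatever the replicate mean, cut at about 25% in these data; inconclusive = mean inhibition reaches that limit but some replicates miss it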;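 also: 0% = plate neutral control median and 100% = total signal loss; the record names both 10 and 1 µM as test concentration; the first replicate is given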
Target sequence (P42568 whole entry, looked up): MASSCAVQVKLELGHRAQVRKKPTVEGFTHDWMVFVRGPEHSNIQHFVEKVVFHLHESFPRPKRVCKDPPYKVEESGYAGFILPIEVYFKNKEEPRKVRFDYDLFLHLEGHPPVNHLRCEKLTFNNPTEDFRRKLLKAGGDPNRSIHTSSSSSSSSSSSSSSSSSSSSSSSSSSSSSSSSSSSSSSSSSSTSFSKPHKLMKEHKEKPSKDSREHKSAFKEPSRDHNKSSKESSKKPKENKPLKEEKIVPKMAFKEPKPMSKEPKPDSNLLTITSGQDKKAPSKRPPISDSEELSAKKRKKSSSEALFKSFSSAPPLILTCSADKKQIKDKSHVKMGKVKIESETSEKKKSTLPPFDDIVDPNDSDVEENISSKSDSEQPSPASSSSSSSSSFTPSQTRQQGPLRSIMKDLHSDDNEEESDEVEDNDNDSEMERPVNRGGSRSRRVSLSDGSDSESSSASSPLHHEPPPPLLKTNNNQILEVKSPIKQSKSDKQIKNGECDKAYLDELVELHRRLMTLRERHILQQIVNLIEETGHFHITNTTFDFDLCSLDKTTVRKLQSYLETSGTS
UCH37 DUB inh: inhibitors of human deubiquitinating enzyme UCH37; purified proteasome/UCH37, Ub-AMC cleavage fluorescence; inhibition, % (concentration not given with the values); actives 0.33% (n = 330,000); AID 588478;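 active = mean of two replicates above 20%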;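 also: 0% = compound-free wells with enzyme and 100% = wells lacking proteasome; stock transfer was 100 nL into about 20 µL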
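Schedule: 30 min plus 25 min, room temperature / Material: human UCH37 within purified proteasomes / Technique: AMC fluorescence intensity at 355/460 nm / Buffer or medium: pH 7.4 Tris-HCl (50 mM) with ovalbumin, ATP-MgCl2, DTT / Controls: wells without proteasome as full block, compound-free enzyme plus substrate as uninhibited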
Active calls of the source: *; & = joins results of further samples. A portion of the library. The share of hits here may be higher or lower than overall.

For Cn1nnnc1SCC(=O)Nc1cc(S(=O)(=O)N2CCCCC2)ccc1Cl the results were FGF22 binding inactive, HNF4A DNA FP 2.5, E coli growth 0.69, Vif TR-FRET -9%, MLL AF4-AF9 inh -1.4 and UCH37 DUB inh 0.3.
Screening Cc1ccc(C(=O)OCC(=O)NCCN2C(=O)CSC2=O)cc1 returned FGF22 binding inactive, HNF4A DNA FP 3.1, RanGTP-Imp inh inconclusive, E coli growth 0.65, Vif TR-FRET -13%, MLL AF4-AF9 inh -0.2 and UCH37 DUB inh 1.2.
COc1cccc(OCCCN2CCCCCC2)c1 was read as FGF22 binding inactive, HNF4A DNA FP 1.6, RanGTP-Imp inh 0.0, E coli growth 0.67, Vif TR-FRET 3%, MLL AF4-AF9 inh -10 and UCH37 DUB inh 0.3.
For O=C(/C=C/c1c(Cl)cccc1Cl)N1CCN(c2ncccn2)CC1 the results were HNF4A DNA FP 0.1, RanGTP-Imp inh -0.3, E coli growth 0.68, Vif TR-FRET 3% and UCH37 DUB inh 2.2.
Screening CC1=[N+](C)N(c2ccccc2)C(=O)C1N=Cc1ccc(Cl)cc1 (stereo unspecified) returned FGF22 binding inactive, HNF4A DNA FP 0.1, RanGTP-Imp inh -0.4, E coli growth 0.71, Vif TR-FRET 0%, MLL AF4-AF9 inh -0.2 and UCH37 DUB inh 0.1.
CC1(C)C(=O)C=CC(=O)C(C)(C)C(=O)C=CC(=O)C(C)(C)C2=CC=C(O2)C(C)(C)C(=O)C=CC1=O was read as FGF22 binding inactive, HNF4A DNA FP 7.8, Vif TR-FRET 1% and MLL AF4-AF9 inh 7.9.
For O=C(Nc1nc(-c2ccccc2)cs1)c1cccnc1 the results were HNF4A DNA FP 1.1, RanGTP-Imp inh 0.8, E coli growth 0.7, Vif TR-FRET -2% and UCH37 DUB inh -8.5.
For Fc1ccc(CNc2ccc(N3CCN(Cc4ccccc4)CC3)cc2)cc1 the results were FGF22 binding inactive, HNF4A DNA FP 4.6, RanGTP-Imp inh -1.3, E coli growth 0.66, MLL AF4-AF9 inh inconclusive and UCH37 DUB inh 2.4.
Screening Cc1ccc(C(=O)NC(=S)NCCN2CCOCC2)cc1 returned FGF22 binding inactive, HNF4A DNA FP 0.8, RanGTP-Imp inh -2.1, E coli growth 0.66, MLL AF4-AF9 inh 2.7 and UCH37 DUB inh 2.4.
For CS/C(N)=N/N=C/c1c(O)ccc2ccccc12 the results were FGF22 binding inactive, HNF4A DNA FP 2.6, RanGTP-Imp inh -2.0, Vif TR-FRET -2% and MLL AF4-AF9 inh 3.8.
Screening Cc1cc2[nH]c(=O)c(=O)[nH]c2cc1S(=O)(=O)N1CCN(c2cccc(C)c2C)CC1 returned FGF22 binding inactive, HNF4A DNA FP -1.4, RanGTP-Imp inh 1.2, E coli growth 0.74, Vif TR-FRET -2%, MLL AF4-AF9 inh -0.9 and UCH37 DUB inh -9.5.
For CCOC(=O)/C(C#N)=C(\N)C(C)C(=O)Nc1ccccn1 (stereo unspecified) the results were HNF4A DNA FP 0.8, RanGTP-Imp inh 4.3, E coli growth 0.76, Vif TR-FRET 0% and UCH37 DUB inh 3.1.
For Cc1cc(Br)ccc1NC(=O)CNC(=O)CSc1n[nH]c(N)n1 the results were HNF4A DNA FP 1.2, RanGTP-Imp inh 1.1, E coli growth 0.71, Vif TR-FRET -3% and UCH37 DUB inh -0.4.
For S=c1[nH]nc(-c2cc(-c3ccccc3)n[nH]2)n1/N=C/c1ccc(Cl)c(Cl)c1 the results were FGF22 binding inactive, HNF4A DNA FP 9.0, RanGTP-Imp inh 3.9, Vif TR-FRET 10% and MLL AF4-AF9 inh 1.6.
For CN(c1ccc(C(=O)NCCSCc2ccccc2)cc1)S(=O)(=O)c1ccccc1 the results were HNF4A DNA FP 0.9, RanGTP-Imp inh 3.2, E coli growth 0.7, Vif TR-FRET 7% and UCH37 DUB inh 4.7.
For O=c1[nH]c(-[n+]2ccccc2)c(/C=N/NC([S-])=Nc2ccccc2)s1 the results were FGF22 binding inactive, HNF4A DNA FP -21, RanGTP-Imp inh -7.8, Vif TR-FRET 11% and MLL AF4-AF9 inh 0.8.
`COc1ccccc1-c1c(C)oc2c(CN3CCN(C)CC3)c(O)ccc2c1=O` gave HNF4A DNA FP 0.8, RanGTP-Imp inh -2.4, E coli growth 0.69, Vif TR-FRET 8% and UCH37 DUB inh inactive.
Screening COCC(=O)OC1CCn2c1nc1c2C(=O)C(C)=C(NC(C)=O)C1=O (stereo unspecified) returned FGF22 binding inactive, HNF4A DNA FP -0.1 and MLL AF4-AF9 inh -6.8.
`S=C(Nc1cccc(Cl)c1)N1CCN(Cc2ccccc2)CC1` gave FGF22 binding inactive, HNF4A DNA FP -1.1, RanGTP-Imp inh -0.4, E coli growth 0.68, Vif TR-FRET 2%, MLL AF4-AF9 inh 2.8 and UCH37 DUB inh 0.4.
Screening O=C(CSCc1ccccc1)N/N=C/c1cc2c(cc1Br)OCO2 returned FGF22 binding inactive, HNF4A DNA FP -1.6, RanGTP-Imp inh 0.0, Vif TR-FRET 29% and MLL AF4-AF9 inh 4.8.
For COc1ccc(/C(O)=C/C(=O)C(=O)NNC(=O)C(O)(c2ccccc2)c2ccccc2)cc1 the results were HNF4A DNA FP -0.5, RanGTP-Imp inh 2.1, E coli growth 0.68, Vif TR-FRET 5% and UCH37 DUB inh 13.
O=C(Nc1cccc(Cl)c1)c1nc[nH]c1C(=O)NCc1ccccc1 was read as FGF22 binding inactive, HNF4A DNA FP -3.8, E coli growth 0.72, MLL AF4-AF9 inh -2.5 and UCH37 DUB inh 1.1.
Screening Cc1[nH]n(-c2ccc(Br)cc2)c(=O)c1C=Nc1ccc(S(=O)(=O)Nc2nccs2)cc1 returned HNF4A DNA FP -1.3, RanGTP-Imp inh -10, E coli growth 0.69 and UCH37 DUB inh 7.7.
O=C(Nc1ccccc1)Nc1ccc2snnc2c1 was read as HNF4A DNA FP -1.5, RanGTP-Imp inh 1.6, E coli growth 0.57, Vif TR-FRET -1% and UCH37 DUB inh 6.0.
Screening CCN1C(=O)[C@@H]2[C@H](C1=O)[C@@H]1C(=O)Nc3ccccc3C(=O)N1[C@@H]2c1cccc(Cl)c1 returned HNF4A DNA FP -4.1, RanGTP-Imp inh -3.3 and UCH37 DUB inh -0.5.
For Cc1ccc(CN(CC(=O)NC2CCCC2)C(=O)CSc2nnc(COc3ccccc3)o2)cc1 the results were HNF4A DNA FP -1.5, RanGTP-Imp inh -4.8, E coli growth 0.78, Vif TR-FRET 15% and UCH37 DUB inh 0.5.
Screening Cc1ccc(N=C2C(=O)Nc3ccccc32)c(C)c1 returned FGF22 binding inactive, HNF4A DNA FP -1.7, RanGTP-Imp inh 3.6, E coli growth 0.58, MLL AF4-AF9 inh -1.6 and UCH37 DUB inh 3.8.
Screening O=C(NCCN1CCC(n2c(=O)[nH]c3ccccc32)CC1)c1ccncc1 returned FGF22 binding inactive, HNF4A DNA FP 2.4 and MLL AF4-AF9 inh 0.1.
Screening Cc1ccc(S(=O)(=O)N2CCCCC2)cc1NC(=O)Cn1ccsc1=N returned FGF22 binding inactive, HNF4A DNA FP -0.2, RanGTP-Imp inh 4.6, E coli growth 0.72, Vif TR-FRET -13%, MLL AF4-AF9 inh -1.8 and UCH37 DUB inh 2.9.
CC(C)Cc1nnc(NC(=O)CSc2ncn[nH]2)s1 was read as HNF4A DNA FP 2.9, RanGTP-Imp inh -0.7, E coli growth 0.74, Vif TR-FRET 3%&0% and UCH37 DUB inh 2.2.
For CC(C)(C)c1ccc(C(=O)N2CCN(CCNC(=O)C(=O)NCc3ccc(Cl)cc3)CC2)cc1 the results were HNF4A DNA FP 0.0, E coli growth 0.68 and UCH37 DUB inh 1.0.
CC(=O)Nc1ccc(NC(=O)C2CCN(C(=O)c3ccc([N+](=O)[O-])cc3)CC2)cc1 was read as FGF22 binding inactive, HNF4A DNA FP -0.9, RanGTP-Imp inh -1.7, E coli growth 0.73, Vif TR-FRET inconclusive, MLL AF4-AF9 inh -1.3 and UCH37 DUB inh 3.9.
For CCOc1ccc2[nH]c(=O)c(CN(CCN3CCOCC3)Cc3nnnn3C(C)(C)CC)cc2c1 the results were FGF22 binding inactive, HNF4A DNA FP 1.6, RanGTP-Imp inh -3.7, E coli growth 0.64, Vif TR-FRET 8%, MLL AF4-AF9 inh -0.2 and UCH37 DUB inh -76.
Screening COC(=O)[C@H]1[C@@H](C)N(CCc2cc(OC)c(OC)c(OC)c2)C(=O)N[C@H]1c1ccccc1 returned FGF22 binding inactive, HNF4A DNA FP 1.6, RanGTP-Imp inh -0.3, MLL AF4-AF9 inh 1.9 and UCH37 DUB inh 1.7.
Screening CCOc1cc(/C=N/NC(=O)c2ccc(-c3csc(Nc4ccc(C)cc4)n3)cc2)ccc1OCC(=O)O returned FGF22 binding inactive, HNF4A DNA FP -15, Vif TR-FRET 19% and MLL AF4-AF9 inh -3.5.
Screening O=C(C1CC1)N1CCN(c2ccc([N+](=O)[O-])cc2)CC1 returned FGF22 binding inactive, HNF4A DNA FP 3.6, RanGTP-Imp inh 3.3, E coli growth 0.67, MLL AF4-AF9 inh 0.3 and UCH37 DUB inh 14.
`CC(=O)c1ccc(NC(=O)CCn2c(=S)oc3ccccc32)cc1` gave FGF22 binding inactive, HNF4A DNA FP 2.6, RanGTP-Imp inh -1.9, E coli growth 0.63, Vif TR-FRET -2%, MLL AF4-AF9 inh -2.6 and UCH37 DUB inh 1.5.
`Cc1ccc(-c2cc(C(=O)O)n(-c3ccc(S(N)(=O)=O)cc3)n2)cc1` gave FGF22 binding inactive, HNF4A DNA FP -2.7, RanGTP-Imp inh 0.8, E coli growth 0.7, Vif TR-FRET 9%, MLL AF4-AF9 inh 2.2 and UCH37 DUB inh -0.1.
`COCCOC(=O)c1[nH]c2c(c1C)C(=O)CC(c1ccc(OC)cc1)C2` (stereo unspecified) gave FGF22 binding inactive, HNF4A DNA FP 0.9, RanGTP-Imp inh inconclusive, E coli growth 0.7, Vif TR-FRET -6%, MLL AF4-AF9 inh -2.2 and UCH37 DUB inh 7.5.
Screening CC1(C)Cc2ccccc2C(=C(C#N)C#N)N1 returned HNF4A DNA FP 1.7, RanGTP-Imp inh 6.3, E coli growth 0.68 and UCH37 DUB inh 5.9.
`Cc1ccc2c(c1)N=C(c1ccccc1)CC(C(Cl)Cl)=N2` gave FGF22 binding inactive, HNF4A DNA FP 5.0, RanGTP-Imp inh -0.2, E coli growth 0.72, Vif TR-FRET 28%, MLL AF4-AF9 inh 7.5 and UCH37 DUB inh 4.2.
For Cc1ccc(C(=O)N(Cc2nnc(-c3ccc(Cl)cc3)o2)C2CC2)o1 the results were FGF22 binding inactive, HNF4A DNA FP 3.0, E coli growth 0.66, Vif TR-FRET 2%, MLL AF4-AF9 inh 0.7 and UCH37 DUB inh 1.2.
Screening CCn1c2ccccc2c2nnc(SCCN3CCCCC3)nc21 returned FGF22 binding inactive, HNF4A DNA FP 1.4, RanGTP-Imp inh 5.1, E coli growth 0.7, Vif TR-FRET 33%, MLL AF4-AF9 inh -0.7 and UCH37 DUB inh 5.1.
`CCOC(=O)C(C(=O)N(C)C)c1ncc(C(F)(F)F)cc1Cl` (stereo unspecified) gave HNF4A DNA FP 2.3, RanGTP-Imp inh -0.6, E coli growth 0.68, Vif TR-FRET 5% and UCH37 DUB inh 1.0.
`CCc1ccc2[nH]cc(C(=O)N3CCCCCC3)c(=O)c2c1` gave HNF4A DNA FP -0.3, RanGTP-Imp inh 0.5, E coli growth 0.68, Vif TR-FRET -4% and UCH37 DUB inh 1.7.
